Screening results (PubChem BioAssay)
HSV replic up – enhancers of HSV replication in host cells, fold increase, host cell viability; maximum fold increase; 220,000 compounds, 0.005% hits; HSV replication augmentation in cells; AID 1956, 2009;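 active means peak rise of 1.5-fold or more in the series; tested in PC3 cells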;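 further: first round at 10 µM; read as green reporter fluorescence; hits show the peak of a series up to 25 µM; 1 = signal of infected wells without compound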
GALR2 agonist – GALR2 receptor agonists, primary screen, cell-based | Galanin receptor type 2 (Homo sapiens), O43603 | GALR2-expressing cells, agonist activation read-out | activation, %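 (tested at 5 µM)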 | 140,000 compounds, 0.48% hits | AID 803, 2007;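 active means above mean plus 3 SD of all compounds, about 5% in these data, not always enough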;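 further: 0% = vehicle buffer wells and 100% = reference agonist at full effect; tested in CHO reporter cells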
Target sequence (O43603 whole entry, looked up): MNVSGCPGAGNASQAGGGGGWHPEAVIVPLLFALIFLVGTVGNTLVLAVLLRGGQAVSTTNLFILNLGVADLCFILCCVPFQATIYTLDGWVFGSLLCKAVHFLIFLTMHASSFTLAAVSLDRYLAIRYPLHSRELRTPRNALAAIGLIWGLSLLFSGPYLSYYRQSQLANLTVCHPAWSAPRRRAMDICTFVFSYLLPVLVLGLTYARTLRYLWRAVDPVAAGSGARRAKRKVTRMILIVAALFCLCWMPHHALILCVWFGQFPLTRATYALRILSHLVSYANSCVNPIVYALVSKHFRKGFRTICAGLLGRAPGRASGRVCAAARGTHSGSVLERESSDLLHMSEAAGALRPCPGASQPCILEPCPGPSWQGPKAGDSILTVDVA
PKD1 inh – inhibitors of human PKD1 kinase, biochemical, fluorescence polarization | Serine/threonine-protein kinase D1 (Homo sapiens), Q15139 | PKD1 kinase fluorescence polarization assay | inhibition, %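 (about 10 µM by stock and volumes)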 | 200,000 compounds, 0.056% hits;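 active means inhibition of 50% or more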;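 further: controls were vehicle for no effect and a reference inhibitor for full effect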
RGS16-Gao – modulators of RGS16 binding to Galphao, primary screen, biochemical, human proteins, multiplexed bead flow cytometry | bead-based flow cytometry RGS16-Galphao binding, fluorescence; actives lie on both sides | Regulator of G-protein signaling 16 (Homo sapiens) + Guanine nucleotide-binding protein … | binding response (% of control), % at 10 µM | 220,000 compounds, 0.38% hits | AID 1441, 2008;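 active means below 25% or above 175%, edge rows of some plates excepted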;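 further: Galphao activated by GDP with aluminum fluoride before binding; 100% = wells without compound and 0% = beads without RGS; some results beyond the cut were filed as inactive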
Target sequence (O15492 whole entry, looked up): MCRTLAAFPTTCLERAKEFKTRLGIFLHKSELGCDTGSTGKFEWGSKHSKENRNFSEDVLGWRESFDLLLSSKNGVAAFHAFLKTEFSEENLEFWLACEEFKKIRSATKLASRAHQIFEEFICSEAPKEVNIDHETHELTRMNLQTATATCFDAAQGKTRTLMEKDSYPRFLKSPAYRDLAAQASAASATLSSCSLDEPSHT
Target sequence (P09471 whole entry, looked up): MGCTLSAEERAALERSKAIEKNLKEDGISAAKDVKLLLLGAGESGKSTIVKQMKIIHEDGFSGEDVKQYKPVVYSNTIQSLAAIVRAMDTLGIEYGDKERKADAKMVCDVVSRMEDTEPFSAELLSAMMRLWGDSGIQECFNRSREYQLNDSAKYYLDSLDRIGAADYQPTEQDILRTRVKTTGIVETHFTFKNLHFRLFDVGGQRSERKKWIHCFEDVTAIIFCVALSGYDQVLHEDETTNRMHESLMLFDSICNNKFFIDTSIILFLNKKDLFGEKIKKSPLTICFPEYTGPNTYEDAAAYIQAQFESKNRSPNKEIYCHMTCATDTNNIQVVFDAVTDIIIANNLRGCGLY
Insulin prom inh – inhibitors of insulin promoter-driven GFP, primary screen, imaging, TRM-6 cells (human fetal islet line), eGFP reporter, cell count; 130,000 compounds, 0.9% hits; inhibition, % at 2 µM; reporter expression induced with tamoxifen;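 active means inhibition above the mean plus 3 SD, with well images judged a real hit on visual review, cut at about 60% in these data, passing the limit was not always enough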
Insulin prom inh cell count – also measured in Insulin prom inh; calls as there; normalized cell count, %; measured here: cell count, toxicity; reference of the scale not given here;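 cells exposed to compound for 48 h; stained nuclei by imaging scaled within each plate; lower means fewer cells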
HSV replic up primary fold – second read-out of HSV replic up, no call of its own (marks repeat the call); fold increase; compound at 10 µM; measured here: primary screen fold increase 10 uM; tested in PC3 cells;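 GFP signal in the first replicate; 1 = infected wells without compound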
* = called active by the depositor; i = inactive; nt = not tested or not shown.

Under each structure – HSV replic up, HSV replic up primary fold, GALR2 agonist, PKD1 inh, RGS16-Gao, Insulin prom inh, Insulin prom inh cell count
CCOC(=O)N1CCC(c2cc(=O)n3[nH]c(C)c(-c4ccc(F)cc4)c3n2)CC1
 : nt, nt, 0.0, 6.3, 101.2, nt, nt
CCOc1ccc(/C(O)=C2/C(=O)C(=O)N(c3cc(C)on3)C2c2ccc(C(=O)OC)cc2)cc1 (configuration not stated)
 : i, 1.13, -0.8, -13.3, 125.4, 48.4, 51.6
NC(=O)c1cccnc1Oc1ccc(Cl)cc1
 : i, 1.09, nt, nt, 104.3, nt, nt
CCOC(=O)C(=O)Nc1ccc([N+](=O)[O-])cc1OC
 : i, 1.03, -0.7, 16.2, 105.8, 13.3, 90.8
Cc1ccc(Cc2cnc(N3C(=N)SC(C)C3=O)s2)cc1 (configuration not stated)
 : i, 0.96, nt, -2.0, 102.0, nt, nt
CC1(C)CC(=O)c2c(n(S(=O)(=O)c3ccccc3)c3ccc(NS(=O)(=O)c4ccccc4)cc23)C1
 : i, 0.83, 2.2, -8.4, 112.2, -29.7, 123.7
CC(=O)NCCC(=O)Nc1cccc(S(=O)(=O)N(C)c2ccccc2)c1
 : i, 1.1, -0.8, -4.8, 100.1, -41.9, 71.4
Cc1ccccc1NC(=S)NCc1ccc2c(c1)OCO2
 : nt, nt, -2.5, -7.4, 104.4, nt, nt
Cc1cc(C)c([N+](=O)[O-])cc1NC(=O)CCSc1ccccc1Cl
 : i, 0.89, -0.1, -2.1, 100.6, 53.2, 109.3
COc1cc2c(cc1OC)C(c1ccc3c(c1)OCO3)C1=C(CC(C)(C)CC1=O)N2 (configuration not stated)
 : nt, nt, -2.3, -9.4, 102.8, -15.2, 123.5
Cc1cccc(C)c1NC(=O)CNc1ncnc2sc(C)c(C)c12
 : i, 1.01, -1.2, -1.9, 121.6, nt, nt
Cc1ccc(-c2nnc(SCC(=O)Nc3nc4c(s3)CCCC4)n2C)cc1
 : i, 1.06, -0.3, 3.7, 106.8, nt, nt
N#Cc1c2c(nc(N)c1-c1ccccc1)CCCCC2
 : i, 0.96, 0.3, -3.1, 98.4, 9.3, 182.3
C=CCOC(=O)/C(=C/c1cccnc1)NC(=O)c1ccccc1
 : i, 0.91, nt, nt, 103.5, nt, nt
O=C(NC1CCCc2c1cnn2-c1ccc(F)cc1F)c1cnccn1 (configuration not stated)
 : i, 0.97, nt, -1.8, 96.7, nt, nt
CC1(C)CC(=O)C2=C(C1)OC(N)=C(C#N)C2c1ccccc1[N+](=O)[O-] (configuration not stated)
 : i, 1.2, nt, 5.2, 111.3, nt, nt
CN(C)S(=O)(=O)Oc1ccccc1C(=O)Nc1ccc(F)cc1
 : i, 1.02, nt, -3.5, 93.8, -147.1, 80.0
O=C1NCC(COc2cccc3ccccc23)O1 (configuration not stated)
 : i, 0.93, nt, 0.2, 78.7, 2.6, 77.7
CC1CCCCN1C(=O)c1cc(F)c(F)cc1Cl (configuration not stated)
 : i, 0.957, -0.3, -6.6, 101.8, -16.7, 207.1
CC1=C(C(=O)OC(C)(C)C)C(c2cccs2)NC(=O)N1 (configuration not stated)
 : i, 1.04, -0.6, 3.0, 102.8, -25.0, 83.1
CCCc1cc(=O)[nH]c(SCC(=O)N(C)Cc2ccccc2)n1
 : i, 1.02, 0.2, -5.0, 101.0, nt, nt
O=C(Nc1ccccc1)C1=C[C@@H](c2coc3ccccc3c2=O)C[C@@H](OCCCCO)O1
 : i, 0.59, nt, 1.3, 89.1, nt, nt
O=C(CC(SCCO)c1ccc2c(c1)OCO2)c1ccco1 (configuration not stated)
 : i, 1, -1.1, -5.0, 103.1, nt, nt
O=S(=O)(c1ccc(N2CCOCC2)nc1)N1CCOCC1
 : i, 0.88, -1.1, 0.9, 99.2, 69.2, 106.3
CCn1c(COc2ccccc2C)nnc1SCC(=O)Nc1ccc2c(c1)OCCO2
 : i, 0.87, -1.8, -2.3, 108.2, 11.5, 105.1
COc1ccc(CC(=O)OCC(=O)NC(=O)NC(C)C)cc1
 : i, 0.92, -2.6, -2.2, 97.1, nt, nt
Cc1cc2ccccc2nc1SCC(=O)Nc1nc(-c2ccccc2)cs1
 : i, 0.65, -0.7, 8.4, 104.5, nt, nt
CS(=O)(=O)c1[nH]nc(-c2ccccc2)c1C#N
 : i, 1, nt, nt, 103.3, nt, nt
COc1ccc(/C=C(/NC(=O)c2ccccc2Cl)C(=O)O)cc1
 : i, 0.96, nt, 4.3, 98.1, -15.8, 132.1
Cc1ccc(C)c(CSc2nnc(CCN)o2)c1
 : i, 0.81, -2.4, -6.9, 99.9, 24.3, 41.0

Some of these compounds in order of the RGS16-Gao value, rising.
Structure,HSV replic up primary fold,GALR2 agonist,PKD1 inh,RGS16-Gao
O=C1NCC(COc2cccc3ccccc23)O1 (configuration not stated),0.93,nt,0.2,78.7
O=S(=O)(c1ccc(N2CCOCC2)nc1)N1CCOCC1,0.88,-1.1,0.9,99.2
Cc1ccc(Cc2cnc(N3C(=N)SC(C)C3=O)s2)cc1 (configuration not stated),0.96,nt,-2.0,102.0
CS(=O)(=O)c1[nH]nc(-c2ccccc2)c1C#N,1,nt,nt,103.3
NC(=O)c1cccnc1Oc1ccc(Cl)cc1,1.09,nt,nt,104.3
CCOC(=O)C(=O)Nc1ccc([N+](=O)[O-])cc1OC,1.03,-0.7,16.2,105.8
CC1(C)CC(=O)C2=C(C1)OC(N)=C(C#N)C2c1ccccc1[N+](=O)[O-] (configuration not stated),1.2,nt,5.2,111.3

Other compounds:
Under each structure – HSV replic up, HSV replic up primary fold, GALR2 agonist, PKD1 inh, RGS16-Gao, Insulin prom inh, Insulin prom inh cell count
c1ccc(COc2ccc(CN3CCN(c4ccccn4)CC3)cc2)cc1
 : i, 0.93, -1.3, -5.9, 103.8, -21.4, 113.7
CCOC(=O)C1CCN(C(=O)CN(c2ccc(OC)cc2)S(=O)(=O)c2c(C)nn(C)c2C)CC1
 : i, 1.18, -0.2, 0.6, 105.0, nt, nt
CCC(=O)Nc1nnc(Cc2ccccc2)s1
 : i, 1.04, -1.6, -5.4, 101.6, 41.9, 96.0
O=C(NCCCN1CCOCC1)c1cc(-c2ccc3c(c2)OCO3)nc2ccccc12
 : i, 1.08, -2.8, -6.8, 63.3, nt, nt
CCc1ccc(/C=N/NC(=O)c2ccccn2)cc1
 : i, 0.97, nt, nt, 98.6, nt, nt
COc1ccc(Cc2nnc(NC(=O)c3cccs3)s2)cc1OC
 : i, 0.97, nt, -0.1, 65.5, 36.4, 73.7
COc1ccccc1NS(=O)(=O)c1cc(C(=O)NCc2ccco2)ccc1C
 : i, 0.91, -1.5, -0.6, 101.3, -7.0, 116.9
CC(=O)Nc1ccc(S(=O)(=O)Nc2ccc(C(=O)NCC(=O)O)cc2)cc1
 : i, 0.88, nt, nt, 101.9, nt, nt
CCOc1ccccc1NC(=O)CCCc1nc2ccccc2c(=O)[nH]1
 : i, 0.98, -1.2, 8.1, 14.8, nt, nt
O=C(NCC(=O)N(c1ccc2c(c1)OCCO2)C(C(=O)NC1CCCC1)c1ccco1)c1ccco1 (configuration not stated)
 : i, 1.01, -2.8, 3.2, 92.4, 9.5, 91.5
CCn1c(C)nc2cc(C(=O)N/N=C/c3ccc(O)c(O)c3O)ccc21
 : i, 1.13, nt, 0.0, 76.3, 14.3, 126.9
CC(C)CNC(=O)COc1ncnc2sccc12
 : i, 0.9, nt, -2.2, 105.2, nt, nt
COc1ccc2c(c1)OC(O)(C(F)(F)C(F)F)CC2=O (configuration not stated)
 : i, 0.77, -0.1, -4.8, 97.9, -9.1, 105.8
CCOC(=O)CNC(=O)c1cn(C)c(=O)c2cc(OC)c(OC)cc12
 : i, 1.07, -2.6, -9.9, 98.8, nt, nt
Cn1c(=O)c2ncn(CC(=O)NCCOc3ccccc3)c2n(C)c1=O
 : i, 0.78, -0.6, -3.8, 100.7, 7.1, 77.2
COC(=O)c1ccc(NC(=O)CSc2nnc(-c3ccncc3)n2N)cc1
 : i, 0.9, -2.4, -6.0, 108.0, -80.7, 126.9
Cc1nn2c(NCCN(C)C)c3c(nc2c1-c1ccccc1)CCC3
 : i, 0.77, nt, nt, 99.5, nt, nt
Cc1ccc(CSc2nnc3c(n2)OC2(Nc4ccccc4-3)C(=O)Nc3ccc(F)cc32)cc1 (configuration not stated)
 : i, 0.89, -1.7, -11.3, 110.3, nt, nt
CC(C)(C)NC(=O)Cn1cc(C#N)c2cc(Br)ccc21
 : i, 1.04, -2.0, 5.9, 105.4, 31.2, 116.2
CC1(C)CC(=O)C2=C(C1)N=c1s/c(=C/c3ccc(F)c(F)c3)c(=O)n1C2c1ccc(F)cc1 (configuration not stated)
 : i, 1.03, -1.4, 7.7, 8.6, nt, nt
COc1ccc(Cl)cc1C(=O)NNC(=S)NC(=O)c1cc(-c2ccccc2)nc2ccccc12
 : nt, nt, -3.3, -7.7, 106.1, 40.0, 102.8
CC1=C(C(=O)NCc2ccco2)C2(CCC(C)CC2)OC1=O (configuration not stated)
 : i, 0.92, -1.9, 13.4, 104.9, nt, nt
C/C(=N/Nc1ccc(Cl)cc1)c1cnnc(-c2ccccc2)n1
 : i, 0.98, nt, -3.9, 109.0, 15.0, 106.8
CCCCOC(=O)Cn1c(-c2ccccc2)nc2ccccc2c1=O
 : i, 1.04, -1.4, -6.6, 107.5, 3.5, 73.4
CCOC(=O)c1cnc(SC)nc1Nc1cccc2ccccc12
 : i, 1.04, -1.4, -6.2, 97.0, 12.5, 96.9
CC(C)NC(=O)NCCCCCCS(C)=O (configuration not stated)
 : i, 0.88, nt, 6.5, 97.2, nt, nt
Cc1cc(-c2ccccc2)nc(SC(C(=O)O)c2ccccc2)n1 (configuration not stated)
 : i, 1.03, nt, -4.8, 90.9, nt, nt
O=C(CCC(=O)NCCCc1ccccc1)NCCCc1ccccc1
 : i, 0.99, -0.1, -6.9, 105.4, -40.3, 88.1
CCCC(=O)Nc1nnc(CCOC)s1
 : i, 0.97, 0.1, -2.2, 110.1, -43.3, 114.0
CCCN1CCN(S(=O)(=O)c2ccc3c(c2)OCCO3)CC1
 : i, 0.99, nt, -9.7, 100.8, nt, nt

Record cards (already shown). Values in the order: HSV replic up	HSV replic up primary fold	GALR2 agonist	PKD1 inh	RGS16-Gao	Insulin prom inh	Insulin prom inh cell count
CCc1ccc(/C=N/NC(=O)c2ccccn2)cc1 as listed: i	0.97	nt	nt	98.6	nt	nt
CCCCOC(=O)Cn1c(-c2ccccc2)nc2ccccc2c1=O as listed: i	1.04	-1.4	-6.6	107.5	3.5	73.4
CCOC(=O)CNC(=O)c1cn(C)c(=O)c2cc(OC)c(OC)cc12 as listed: i	1.07	-2.6	-9.9	98.8	nt	nt

The list goes on.
Under each structure – HSV replic up, HSV replic up primary fold, GALR2 agonist, PKD1 inh, RGS16-Gao, Insulin prom inh, Insulin prom inh cell count
O=c1c2ccccc2c(/C=N/c2ncn[nH]2)c(O)n1Cc1ccccc1
 : i, 0.76, 0.9, 10.0, 89.8, 71.4*, 90.0*
CCOC(=O)CN1C(=O)C(O)(CC(=O)c2cccc(OC)c2)c2ccccc21 (configuration not stated)
 : i, 0.92, -1.8, 4.9, 97.0, -27.3, 117.1
CCSc1nnc(-c2ccccc2NC(C)=O)c(=O)[nH]1
 : i, 0.92, -0.8, -5.5, 110.4, 71.4*, 50.6*
O=C1O/C(=C/C(=O)N2CCOCC2)c2ccccc21
 : i, 0.93, -0.6, 4.5, 104.6, -25.0, 125.4
Cc1cc(Cl)ccc1NC(=O)CCC(=O)O
 : i, 0.93, 0.7, -13.3, 102.0, -23.3, 99.3
COc1ccc(C(=O)NNC2=NC(C)(C)Cc3cc(C)c(C)cc32)cc1
 : nt, nt, -1.4, 10.7, 102.5, -53.6, 85.1
O=C(NCc1ccco1)C(=O)NCC1OCCCN1S(=O)(=O)c1ccc(Cl)cc1 (configuration not stated)
 : i, 0.94, nt, -4.2, 106.4, 11.1, 98.3
Cc1[nH][nH]c(=O)c1N=Nc1ccc(Cl)cc1
 : i, 0.94, nt, 0.8, 102.0, -14.3, 106.3
CCCCC(=O)Nc1cc(OC)c(NC(=O)C2CCCCC2)cc1OC
 : i, 0.86, -1.5, -0.3, 107.6, 17.9, 117.7
C=CCn1c(N)c(C(=O)Nc2ccccc2)c2nc3ccccc3nc21
 : i, 0.993, 8.1*, 7.4, 94.4, -104.3, 83.3
Cc1cc(N)ccc1N=Nc1c(C)n(C)n(-c2ccccc2)c1=O
 : i, 0.98, -1.1, 1.6, 82.9, 2.6, 172.1

No enrichment for hits; any-hit rate near 1.3%.
